Compound activity deposited in PubChem by National Center for Advancing Translational Sciences (NCATS).
VACV Venus inh: vaccinia inhibition (Venus reporter); Vaccinia virus Venus reporter expression, fluorescence; Potency, µM (highest dose often 36.5 µM), without a hit: at the highest dose activity change, negative = inhibition, actives largely listed as inhibitors; 0.46% of 330,000 active; AID 720580; active means well fitted inhibition curve with a large enough effect; inconclusive means small, poorly fitted or top-dose-only effect; inactive means no such curve, though single readings can be large or run the other way; tested in A549 cells; further: nearly all actives have a fitted effect of over 30% in size; inactives centre near -10
VACV mCherry inh: inhibitors of vaccinia virus infection (mCherry reporter signal); 0.63% of 310,000 active; Potency, µM (doses to about 36.5 µM), inactives show at the highest dose activity change, negative = inhibition, hits mostly inhibitors; AID 720579; Vaccinia virus mCherry reporter infection, fluorescence; about a quarter of the inactives have no number; active = well fitted inhibition curve with a large enough effect; inconclusive = small, poorly fitted or top-dose-only effect; inactive = no such curve, though single readings can be large or run the other way; tested in A549 cells; further: nearly all actives have a fitted effect of over 35% in size; inactives centre near -10
An asterisk follows results filed as active; i = inactive; ? = inconclusive; . = not tested or not shown; & = joins results of further samples; [ ] = another dose, or the depositor's remark. On the % scale 0 is the no-effect control and ±100 the full control effect; potency means the concentration at half of the fitted maximal effect.

molecule	VACV Venus inh	VACV mCherry inh
COc1ccc(CNCCC(c2ccc(F)cc2)c2ccc(OC)cc2)cc1 (stereo not drawn)	?	?
CCOc1ccccc1N(CC(=O)Nc1ccc2c(c1)OCCO2)S(C)(=O)=O	-13%	-11%
Cc1cc(Br)c2[nH]c3c(c2c1)CCCC3=O	?	.
CN1C(C(=O)c2ccccc2)=C(NC(=O)c2ccc(F)cc2)c2ccccc2S1(=O)=O	-8%	-2%
CCOc1ccc(OCCSc2nc(C)cc(=O)[nH]2)cc1	-14%	-4%
CC(OC(=O)Cc1ccsc1)C(=O)Nc1ccc(Cl)cn1 (stereo not drawn)	-14%	-26%
O=S(=O)(Nc1cccc(CCc2ccccn2)c1)c1cc(Cl)ccc1Cl	-18%	-4%
CCOC(=O)C1(Cc2cccc(OC)c2)CCCN(C(=O)CCN2CCCO2)C1 (stereo not drawn)	1%	i
CSc1nc(Sc2ccccc2)c2ccccc2n1	3%	-1%
COc1ccc2cc(C[C@@H]3CC[C@@H](CNC(N)=O)O3)ccc2c1	0%	0%
O=C(Nc1ccc(OCC(=O)N2CCOCC2)cc1)c1ccccc1F	-5%	21%
COc1ccccc1NC(=O)COC(=O)[C@@H]1CCCN1C(=O)c1cccs1	-9%	i
COc1ccc(C(=O)N2CCc3ccccc32)cc1S(=O)(=O)N1CCOCC1	-9%	-18%
CN1CCN(C(=O)c2c(O)c3cccc4c3n(c2=O)CCC4)CC1	-15%	.
O=S(=O)(NCc1ccc2c(c1)OCO2)c1cccc2nsnc12	-2%[7.34 µM]	0%[7.34 µM]
O=C(CSc1nnc(-c2ccco2)o1)N1CCN(c2ccccc2)CC1	4%	0%
CCOC(=O)c1ccc(Oc2coc3cc(O)ccc3c2=O)cc1	-10%	-12%
COc1ccccc1S(=O)(=O)N1CCN(c2nc(-c3cccs3)nc3ccccc23)CC1	-10%	i
N#CC1=C(N)C(C#N)(C#N)C(c2cccnc2)C2CC(c3ccccc3)CC=C12 (stereo not drawn)	-16%	.
CC(OC(=O)Cn1[nH]c(=O)c2ccccc2c1=O)C(=O)Nc1ccc(F)cc1 (stereo not drawn)	-10%	i
CCOC(=O)C1=C(C)Nc2ncnn2C1c1ccc(N(C)C)cc1 (stereo not drawn)	-9%&-13%	-12%
CCOC(=O)C1(C)CCCCCN1C(=O)c1ccc(OC)cc1 (stereo not drawn)	0%	4%
CC(C)NC(=O)C(=O)NNC(=O)CCc1ccccc1	-14%	i
Cc1cc2oc(C(=O)Nc3sc4c(c3C(=O)NCc3ccccc3)CCCC4)cc(=O)c2cc1C	-12%	-2%
O=[N+]([O-])c1cccc(S(=O)(=O)N2CCN(S(=O)(=O)N3CCCCCC3)CC2)c1	0%	-9%
COc1ccc(-c2nnn(CC(=O)N(c3cccc(O)c3)C(C)C(=O)NC3CCCC3)n2)cc1OC (stereo not drawn)	-15%	i
c1csc(-c2noc(CN3CCN4CCCC4C3)n2)c1 (stereo not drawn)	?	-1%
NC(=O)COC(=O)CC(NC(N)=O)c1ccc(Cl)cc1 (stereo not drawn)	-10%	i
CC(=O)Nc1ccc(SCC(=O)c2cc(C)ccc2C)cc1	1%	-9%
CC(NCCOCCOc1ccccc1)c1ccccc1 (stereo not drawn)	-20%	-1%
COC(=O)c1ccc(NC(=O)Cc2ccc(F)cc2)cc1	-7%	i
CC1CCN(Cc2nnnn2CCCC(=O)NC(c2ccccn2)C(F)(F)F)CC1 (stereo not drawn)	-17%	i
CCN[C@H]1C[C@H](C)S(=O)(=O)c2sc(S(N)(=O)=O)cc21	-11%	-15%
O=C(COC(=O)C1CCC(N2C(=O)C3C4CCC(C4)C3C2=O)CC1)c1ccc(F)cc1 (stereo not drawn)	-1%	0%
COc1ccc(OC)c(C(=O)Nc2ccc3[nH]ccc3c2)c1	-13%	-5%
O=C(Nc1nc2ccccc2[nH]1)c1ccccc1OC(F)F	-7%	-2%
Cc1ccc(CN2C(=O)CCC2C(=O)NCCCN2CCCC(C)C2)cc1 (stereo not drawn)	-23%	.
OC1(CNCc2ccccc2)C2CC3CC(C2)CC1C3 (stereo not drawn)	-13%	-21%
O=C(Nc1cccs1)OCCN1CCN(Cc2ccccc2)CCC1=O	-4%	?
CCCCc1c(CCC)c(=N)c2ccccc2n1C	-18%	-25%
Cc1ccc(CSc2nc3cccnc3n2Cc2ccc(C(=O)NC3CCCCC3)cc2)cc1	11µM*	?
O=C1CN(C(=O)CN2C(=O)NC3(CCCCC3)C2=O)c2ccccc2N1	-2%	?
Cc1n[nH]c(=O)c2c(NC(=O)CSc3ccc(F)cc3)oc(C)c12	-16%	-14%
COCCOC(=O)C1=C(C)Nc2ncnn2C1c1ccco1 (stereo not drawn)	-6%	i
CC1(C)CC(=O)C(C2C3=C(CC(C)(C)CC3=O)OC3=C2C(=O)CC(C)(C)C3)=C(O)C1	-16%	i
CN(c1ccc(C(=O)NCc2ccccn2)cc1)S(=O)(=O)c1ccc(Cl)cc1	-12%	-15%
Fc1ccc(NC(=S)Nc2ccccc2OC(F)F)cc1Cl	?	?
O=C(CNC(=O)OCc1ccccc1)Nc1ccc(Br)cc1C(=O)c1ccccc1Cl	-25%	-6%
O=c1oc2ccc3ccccc3c2cc1-c1nnc(Nc2ccccc2)s1	-12%	-9%
COc1cc2c(cc1NC(=O)COC(=O)[C@@H](NS(=O)(=O)c1ccccc1)C(C)C)oc1ccccc12	?	-23%

Following part
molecule	VACV Venus inh	VACV mCherry inh
NCc1csc(NC(=O)Nc2cccc(Cl)c2)n1	8%	i
O=C(c1cc([N+](=O)[O-])cc([N+](=O)[O-])c1)N1CCN(Cc2ccc3c(c2)OCO3)CC1	7%	i
COc1ccccc1CNC(=O)CSc1nnc2ccc(-c3cccnc3)nn12	-6%	-5%
Cc1onc(-c2ccccc2)c1C(=O)N1CCN(c2ccc([N+](=O)[O-])cc2)CC1	-9%	-9%
O=[N+]([O-])c1cccc(-c2csc(N/N=C/c3cccc(O)c3)n2)c1	?	?
CCc1cccc(N2C(=O)CS(=O)(=O)C23C(=O)N(Cc2ccccc2)c2ccc(C)cc23)c1 (stereo not drawn)	-1%	-2%
COCc1c(C(=O)N2CCC(c3ccccc3)CC2)cnn1-c1nccc(-c2cc(C)sc2C)n1	?	14µM*
Fc1ccc(/C=N/Nc2ncnc3nc[nH]c23)cc1F	-22%	?
COc1cccc(OC)c1C(=O)N1CCN=C1SCc1cccnc1	-16%	-21%
COc1cc(C[C@@H](C)N)c(OC)cc1I	-15%	i

Complete entries, quoted from the list. Values in the order: VACV Venus inh | VACV mCherry inh
`COCc1c(C(=O)N2CCC(c3ccccc3)CC2)cnn1-c1nccc(-c2cc(C)sc2C)n1` in the list: ? | 14µM*
`O=[N+]([O-])c1cccc(-c2csc(N/N=C/c3cccc(O)c3)n2)c1` in the list: ? | ?
`COc1ccccc1CNC(=O)CSc1nnc2ccc(-c3cccnc3)nn12` in the list: -6% | -5%

(listing goes on)
molecule	VACV Venus inh	VACV mCherry inh
CC(=O)c1ccc(N2CCN(C(=O)CCNC(=O)Cn3ccc4ccccc4c3=O)CC2)cc1	-21%	-5%
CCCCNC(=S)N1CCN(c2ccccc2Cl)CC1	-4%	-5%
COc1ccc(S(=O)(=O)N2CCOC2CNC(=O)C(=O)NCCc2ccc(OC)c(OC)c2)cc1C (stereo not drawn)	-21%	-27%
COC(=O)c1ccc(NC(=O)C2CCCN(S(=O)(=O)c3cnc[nH]3)C2)cc1 (stereo not drawn)	1%	6%
CCOC(=O)[C@]12CCCC=C1N(Cc1ccco1)C(=O)[C@H](CC(=O)N1CCN(C(=O)C3CC3)CC1)C2	0%	-10%
CCOC(=O)C1=C(C)N=C2SC=C(C)N2C1c1ccc(OC)cc1 (stereo not drawn)	-16%	i
COc1ccc(/C=N/NC(=O)c2ccccc2[N+](=O)[O-])cc1CN1CCc2cc(OC)c(OC)cc2C1C (stereo not drawn)	1%	6%
COc1ccc(CCNC(=O)c2ccc3c(c2)N(Cc2ccc(Cl)cc2)CCS3)c(OC)c1	-17%	-23%
Cc1ccnc(NC(c2ccccn2)c2c(C)[nH]c3ccccc23)c1 (stereo not drawn)	-5%	-9%
COc1ccc(-c2nc(CN3CCCCC3c3cccnc3)c(C)o2)c(F)c1 (stereo not drawn)	-17%	-10%

Structural class: those above with a nitro group on carbon
molecule	VACV Venus inh	VACV mCherry inh
O=[N+]([O-])c1cccc(S(=O)(=O)N2CCN(S(=O)(=O)N3CCCCCC3)CC2)c1	0%	-9%
O=C(c1cc([N+](=O)[O-])cc([N+](=O)[O-])c1)N1CCN(Cc2ccc3c(c2)OCO3)CC1	7%	i
Cc1onc(-c2ccccc2)c1C(=O)N1CCN(c2ccc([N+](=O)[O-])cc2)CC1	-9%	-9%
O=[N+]([O-])c1cccc(-c2csc(N/N=C/c3cccc(O)c3)n2)c1	?	?
COc1ccc(/C=N/NC(=O)c2ccccc2[N+](=O)[O-])cc1CN1CCc2cc(OC)c(OC)cc2C1C (stereo not drawn)	1%	6%

(list continues)
molecule	VACV Venus inh	VACV mCherry inh
C=CCSc1nc2sc(C)c(C)c2c(=O)n1N	-18%	-11%
COc1ccc(OC)c(NC(=O)c2noc3c2CCCC3)c1	-12%	-4%
Cc1nc2sc(-c3ccccc3)cc2c(=O)n1/N=C/N(C)C	-3%	i
CCOC(=O)c1cccc(Nc2nc(C)cc(C)n2)c1	-16%	.
CCN(CC)CCN1C(=O)C2C(C(=O)Nc3cc(C)cc(C)c3)C3C=CC2(O3)C1C(=O)NC1CCCCC1 (stereo not drawn)	-12%	4%
CS(=O)(=O)N(CC(=O)O)c1cc(C(F)(F)F)ccc1Cl	-11%	i
COc1ccc(C(C)(O)c2nc(-c3ccc(F)c(Cl)c3)cs2)cc1 (stereo not drawn)	-26%	-24%
CC(=O)OC1CCC2(C)C3=C(CCC2C1(C)C)[C@@]1(C)CCC(C(C)CCC=C(C)C)[C@@]1(C)CC3 (stereo partly drawn)	2%	-3%
O=C(CCC1N=C2c3ccccc3N=C(SCc3ccccc3F)N2C1=O)NC1CCCCC1 (stereo not drawn)	-3%	-12%
CCOC(=O)c1c(C)[nH]c(C)c1C(=O)COC(=O)c1ccc(Cl)c(S(=O)(=O)NCc2ccccc2)c1	?	?
CC1CCN(CCn2c(=S)[nH]c3ccccc3c2=O)CC1	5%	-9%
COc1ccc(Cl)cc1S(=O)(=O)N1CCN(C(=O)COc2ccccc2)CC1	-19%	.
Cc1cccc(NC(=O)c2nc[nH]c2C(=O)N[C@@H](C)CO)c1	-27%	-19%
CCN(CC)CCNc1nc(C(F)(F)F)nc2c1nnn2Cc1ccccc1	-16%	?
Cc1ccc(CN2CCN(c3ccccc3)CC2)o1	-10%	i
CC(C)(C)NC(=O)Cn1nnc(-c2ccc(OCc3c(F)cccc3Cl)cc2)n1	-17%	-3%
CCOC(=O)C1CCCN(c2ccc(NC(=O)c3snc4c(=O)[nH]cnc34)cc2)C1 (stereo not drawn)	-4%	i
CCCn1c(SCC(=O)Nc2ccccc2CC)nnc1C(C)C	13%	1%
CCN1CCN(c2c(/C=C3\SC(=S)N(Cc4ccco4)C3=O)c(C)c(C#N)c(=O)n2C)CC1	36%[activator]	i
CCCCCCn1nc(C(=O)Nc2nc3c(s2)CCCC3)c2ccccc2c1=O	-3%	i

2 entries picked at random from those above:
molecule	VACV Venus inh	VACV mCherry inh
CCOC(=O)C1(Cc2cccc(OC)c2)CCCN(C(=O)CCN2CCCO2)C1 (stereo not drawn)	1%	i
CCN(CC)CCN1C(=O)C2C(C(=O)Nc3cc(C)cc(C)c3)C3C=CC2(O3)C1C(=O)NC1CCCCC1 (stereo not drawn)	-12%	4%

The listing continues.
molecule	VACV Venus inh	VACV mCherry inh
COc1ccc(NC(=O)CCCn2c(=S)[nH]c3ccccc3c2=O)cc1	-12%	i
COc1ccc(NC(=O)CSc2n[nH]c(CNc3cccc(C)c3)n2)cc1	-17%	-13%
Cc1cccc(OC(=O)c2cc(-c3ccc4c(c3)OCCO4)on2)c1C	-5%	-6%
COc1nnc(-c2ccc(C(=O)N3C[C@@H]4C[C@H](C3)c3cccc(=O)n3C4)cc2)c2ccccc12	-25%	.
CCc1ccc2cc(C)cnc2n1	-2%	3%
CS(=O)(=O)N(CC(=O)NC1CC1)C1CCCCC1	1%	-11%
CCOC(=O)C1CCCN(C(=O)c2cc(S(=O)(=O)N(C)C)ccc2N2CCCC2)C1 (stereo not drawn)	-8%	i
O=C(CC1C[C@H](C(=O)N2CCOCC2)[C@@]2(CCC3CCCC3)c3[nH]c4ccccc4c3CCN2C1=O)NCCCn1ccnc1 (stereo partly drawn)	0%	i
COc1ccc(OCC(=O)OC(C)CN2CCCCC2)cc1 (stereo not drawn)	-4%	-4%
CCS(=O)(=O)N1Cc2ccccc2CC1C(=O)Nc1nc(C)cs1 (stereo not drawn)	-9%	-4%
COC(=O)C1=C(c2ccccc2)C[C@@H]2CC[C@H]1N2C(=O)NCc1cccc2ccccc12	?	-24%
O=c1n2c(c(O)n1C1CCCCC1)C(c1ccccc1)=Nc1ccccc1C2	-21%	-16%
COc1cc(NS(=O)(=O)c2ccc(NC(=O)COc3cccc(C)c3)cc2)nc(OC)n1	-9%	i

Compounds were not picked by outcome; about 0.86% have a hit in one of these screens.
